Source: PubChem BioAssay (several laboratories)
Arbovirus inh: arbovirus infection inhibition; inhibition, % at 10 µM; hit rate 0.37% among 200,000; arbovirus infection cell-based antiviral screen;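 active = inhibition from about 30%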;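 also: bluetongue infection of BSR cells; cell survival read as ATP light after 72 h; 0% = infected wells without compound and 100% = uninfected wells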
Mtb betalactam: beta-lactam sensitization of Mtb H37Rv; inhibition, % at 25 µM; hit rate 0.27% among 330,000; AID 434955; M. tuberculosis H37Rv growth with meropenem, percent inhibition; hits of this screen are not shown here;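 active = about 74% or more and at least 40 points above the plate without the antibiotic, then above 30% in a dose series; inconclusive = first-round hits that could not be retested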;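 also: growth measured after seven days incubation then overnight dye step; 0% = bacteria only wells and 100% = bacteria with antibiotic; twin plates without the antibiotic show which effects depend on it; some results filed as inactive read as strong as hits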
RecA splice inh: blocks M. tuberculosis RecA intein splicing; cell-free RecA intein splicing, fluorescence; inhibition, %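 (about 9 µM by stock and volumes)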; hit rate 0.75% among 290,000; AID 2221; in the data active = inhibition above about 30%; inconclusive = no clear call, values can overlap the other calls;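 also: 0% = vehicle wells and 100% = reference inhibitor control wells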
Target sequence (P9WHJ3 whole entry, looked up, canonical isoform): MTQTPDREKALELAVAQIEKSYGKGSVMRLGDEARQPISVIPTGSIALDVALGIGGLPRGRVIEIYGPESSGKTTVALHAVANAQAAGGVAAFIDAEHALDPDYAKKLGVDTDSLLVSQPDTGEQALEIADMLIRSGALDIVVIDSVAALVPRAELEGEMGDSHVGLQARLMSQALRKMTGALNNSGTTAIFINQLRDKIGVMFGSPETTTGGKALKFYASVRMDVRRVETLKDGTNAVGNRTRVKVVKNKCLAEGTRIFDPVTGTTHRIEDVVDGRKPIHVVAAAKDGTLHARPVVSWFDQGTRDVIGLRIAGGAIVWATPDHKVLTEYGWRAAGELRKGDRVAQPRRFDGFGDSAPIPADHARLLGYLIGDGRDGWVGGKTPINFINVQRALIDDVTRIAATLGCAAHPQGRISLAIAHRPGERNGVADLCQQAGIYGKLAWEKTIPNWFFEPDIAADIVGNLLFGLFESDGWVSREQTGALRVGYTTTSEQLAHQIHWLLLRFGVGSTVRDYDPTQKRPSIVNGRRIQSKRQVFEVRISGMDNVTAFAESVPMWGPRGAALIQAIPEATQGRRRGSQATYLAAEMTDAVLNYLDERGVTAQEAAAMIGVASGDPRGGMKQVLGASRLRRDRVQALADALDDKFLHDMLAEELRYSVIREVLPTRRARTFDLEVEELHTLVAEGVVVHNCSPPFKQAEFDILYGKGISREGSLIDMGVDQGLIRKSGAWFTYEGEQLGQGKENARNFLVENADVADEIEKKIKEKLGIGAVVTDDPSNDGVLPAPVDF
YopH PTP inh: YopH (Yersinia) phosphatase inhibition; inhibition, %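 (about 10 µM by stock and volumes)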; hit rate 0.16% among 140,000; fluorescence Ex485/Em525; AID 898;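 active = inhibition of 50% or more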;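 also: controls were vehicle for no effect and minimum signal wells for full effect; inactives centre near -20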
Mtb growth: M. tuberculosis H37Rv growth inhibitors, H37Rv strain (AID 1626); M. tuberculosis H37Rv growth inhibition; higher % means a stronger effect; one-dose inhibition, % at 10 µM; IC50 in µM for titrated hits; hit rate 0.95% among 220,000;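 active = confirmed in a dose series; inconclusive = inhibition above 80% but not taken into the dose series; inactive = below 80% or under 30% at every dose of the series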;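 also: bacteria incubated seven days before Alamar blue readout; 0% = bacteria only wells and 100% = bacteria with antibiotic wells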
Active calls of the source: *; ? = inconclusive; nt = not tested or not shown. Only part of the results is shown; count on the stated rates, not on these rows.

Labels used below – A = Arbovirus inh; B = Mtb betalactam; C = RecA splice inh; D = YopH PTP inh; E = Mtb growth
Cc1nc2nc(-c3ccccc3)[nH]n2c(=O)c1C
  A: 14; B: nt; C: -0.4; D: -29; E: 7%
Nc1nc(SCC(=O)Nc2ccccc2Sc2ccccc2)n[nH]1
  A: -14; B: 0; C: 0.2; D: -21; E: 3%
CCOC(=O)C1=C(CSc2nc(CC)c(C)cc2C#N)OC(N)=C(C#N)C1c1ccccc1 (stereo not given)
  A: -11; B: 0; C: -5.2; D: -16; E: 1%
Cc1cc(C)c(NC(=O)CSc2nnc(-c3ccco3)n2N)c(C)c1
  A: 0; B: -1; C: -0.6; D: -38; E: -1%
Cn1c(SCc2ccccc2)nc2c1c(=O)[nH]c(=O)n2C
  A: nt; B: 1; C: -0.5; D: nt; E: nt
C/C(=C\c1ccccc1)C(=O)Nc1ccc(Cl)cn1
  A: nt; B: 12; C: 3.6; D: nt; E: nt
O=C(C1=C(Nc2ccccc2)c2ccccc2S(=O)(=O)N1)c1ccccc1
  A: -8; B: -5; C: -12; D: -1; E: -5%
CC(C)(C)NC(=O)c1ccc(Cn2cc(C(F)(F)F)ccc2=O)cc1
  A: -2; B: -13; C: 4.0; D: nt; E: -2%
CC(=O)OCC1OC(n2cc(F)c(=O)[nH]c2=O)C(OC(C)=O)C1OC(C)=O (stereo not given)
  A: nt; B: -7; C: -2.2; D: nt; E: nt
CC(C)NC(=O)Cc1ccc(Br)cc1
  A: -2; B: -5; C: 5.4; D: -24; E: -14%
O=C(OC(C(=O)NC1CCCC1)c1ccc(F)cc1)c1ccno1 (stereo not given)
  A: -1; B: 3; C: 1.8; D: -33; E: -3%
S=C(NCc1ccc(Cl)c(Cl)c1)Nc1ccc2c(c1)OCO2
  A: -3; B: 3; C: -0.4; D: -29; E: nt
CCc1cccc(OCC(=O)Nc2ccccc2N2CCCC2)c1
  A: nt; B: 45; C: 16; D: nt; E: nt
Cc1ccc(OCc2cc(C(=O)N3CCN(C4CCCC4)CC3)no2)cc1C
  A: nt; B: 23; C: 3.2; D: nt; E: nt
COc1ccc(CCNC(=O)CCNC(=O)c2ccc(Cl)cc2)cc1OC
  A: -4; B: 5; C: 0.2; D: -4; E: 7%

Looked up above:
RecA splice inh result of Cc1nc2nc(-c3ccccc3)[nH]n2c(=O)c1C = -0.4
RecA splice inh result of CC(C)NC(=O)Cc1ccc(Br)cc1 = 5.4

Remaining list, next part.
Labels used below – A = Arbovirus inh; B = Mtb betalactam; C = RecA splice inh; D = YopH PTP inh; E = Mtb growth
CCOC(=O)C(Cc1c(F)cccc1Cl)c1ccno1 (stereo not given)
  A: -2; B: 1; C: 4.3; D: nt; E: -3%
COc1cc(C(c2nnnn2C2CCCC2)N2CCc3ccccc3C2)ccc1O (stereo not given)
  A: 10; B: 9; C: 2.8; D: -13; E: 2%
COc1cc(/C=C2\Oc3cc(O)ccc3C2=O)ccc1O
  A: nt; B: -6; C: -14; D: nt; E: -4%
Cc1cc(N2C(=O)c3ccccc3C2=O)n(C)n1
  A: nt; B: -8; C: -2.0; D: nt; E: -4%
CC(=O)N1c2ccc(S(=O)(=O)N3CCC(C(=O)N4CCCC(C)C4)CC3)cc2CC1C (stereo not given)
  A: nt; B: -1; C: 0.4; D: nt; E: nt
O=C(Nc1cccc(-c2nnn(CC(=O)N3CCc4ccccc4C3)n2)c1)C1CCC1
  A: -5; B: 5; C: 4.2; D: 4; E: -3%
Cc1nc(NCCCO)c(C#N)c2c1COC(C)(C)C2
  A: 8; B: 10; C: -0.8; D: -33; E: 1%
O=C(CCc1ccccc1)NNC(=S)NC(=O)c1ccc(Cl)cc1
  A: -26; B: 78; C: 7.8; D: -15; E: ?
S=c1nc(-c2sccc2OCc2ccc(Cl)cc2Cl)[nH][nH]1
  A: 2; B: 2; C: -0.1; D: nt; E: 6%
N=c1c(C(=O)NCc2ccco2)cc2c(=O)n3ccccc3nc2n1CC1CCCO1 (stereo not given)
  A: nt; B: -12; C: -141; D: -22; E: -3%
CN(C)c1cccc2c1c(NC(=O)Nc1ccc(F)cc1F)nn2C
  A: nt; B: 0; C: 0.1; D: nt; E: 2%
CCOc1ccccc1NC(=O)Cn1nnc(C(=O)NCc2ccco2)c1N
  A: -12; B: -10; C: 3.1; D: -52; E: nt
Cn1cnnc1SCC(=O)c1cc2ccccc2oc1=O
  A: 3; B: 7; C: 0.8; D: 3; E: -6%
Cc1ccccc1N1C(=O)Cc2ccccc2C1=O
  A: nt; B: 0; C: 0.0; D: nt; E: nt
Cn1c(/C=C/c2ccccc2[N+](=O)[O-])nc2ccccc2c1=O
  A: nt; B: 10; C: 0.3; D: nt; E: nt

Reprinted from the entries so far (seven entries):
Labels used below – A = Arbovirus inh; B = Mtb betalactam; C = RecA splice inh; D = YopH PTP inh; E = Mtb growth
S=c1nc(-c2sccc2OCc2ccc(Cl)cc2Cl)[nH][nH]1
  A: 2; B: 2; C: -0.1; D: nt; E: 6%
N=c1c(C(=O)NCc2ccco2)cc2c(=O)n3ccccc3nc2n1CC1CCCO1 (stereo not given)
  A: nt; B: -12; C: -141; D: -22; E: -3%
CN(C)c1cccc2c1c(NC(=O)Nc1ccc(F)cc1F)nn2C
  A: nt; B: 0; C: 0.1; D: nt; E: 2%
CCOc1ccccc1NC(=O)Cn1nnc(C(=O)NCc2ccco2)c1N
  A: -12; B: -10; C: 3.1; D: -52; E: nt
Cn1cnnc1SCC(=O)c1cc2ccccc2oc1=O
  A: 3; B: 7; C: 0.8; D: 3; E: -6%
Cc1ccccc1N1C(=O)Cc2ccccc2C1=O
  A: nt; B: 0; C: 0.0; D: nt; E: nt
Cn1c(/C=C/c2ccccc2[N+](=O)[O-])nc2ccccc2c1=O
  A: nt; B: 10; C: 0.3; D: nt; E: nt

Next section
Labels used below – A = Arbovirus inh; B = Mtb betalactam; C = RecA splice inh; D = YopH PTP inh; E = Mtb growth
CCOCC(=O)Nc1ccc([N+](=O)[O-])cc1Cl
  A: -4; B: 2; C: -2.9; D: nt; E: 2%
O=C(COC(=O)c1ccc(CSc2ccc(Cl)cc2)cc1)Nc1ccccc1
  A: 10; B: 1; C: 2.1; D: -26; E: 10%
CCOc1ccc(Br)cc1S(=O)(=O)N1CC(C)OC(C)C1 (stereo not given)
  A: -2; B: -19; C: 1.2; D: -13; E: -6%
CCn1c(SCC(=O)c2cc(C)n(-c3ccc(C(=O)OC)cc3)c2C)nnc1-c1cccnc1
  A: 0; B: 93; C: 2.0; D: -42; E: 15%
Cc1ccc(C)c(NC(=S)NNC(=O)c2csc3c2CCCC3)c1
  A: -24; B: 10; C: 12; D: -18; E: 3%
C[C@@H]1NC(=O)c2cc([N+](=O)[O-])cc(I)c2NCCCC[C@@H](C(N)=O)NC(=O)[C@H](CCC(=O)O)NC1=O
  A: -7; B: -10; C: nt; D: -35; E: -7%
COC(=O)CCCNS(=O)(=O)c1ccc2ccccc2c1
  A: 3; B: -3; C: 2.0; D: -10; E: 12%
COC(=O)c1ccccc1NC(=O)Cn1cnc2c1c(=O)n(C)c(=O)n2C
  A: nt; B: 1; C: -2.5; D: nt; E: nt
CC1CCCN(CCCNC(=O)c2ccc(N3CCCC3=O)cc2)C1 (stereo not given)
  A: nt; B: -4; C: -4.9; D: nt; E: nt
O=C1CCCCN1CCC(=O)N1CCCC(N2CCN(c3cccc(Cl)c3)CC2)C1 (stereo not given)
  A: nt; B: -9; C: 2.8; D: nt; E: nt
O=C(NCCCNC(=O)c1ccccn1)c1ccc(Cl)cc1
  A: nt; B: 2; C: -1.8; D: nt; E: nt
O=C(CC1SC(N2CCCCC2)=NC1=O)Nc1ccc(C(=O)Nc2ccccc2)cc1 (stereo not given)
  A: nt; B: -2; C: -3.4; D: nt; E: nt
C=CCN(CC=C)C(=O)c1ccc(OC2CCN(S(=O)(=O)N(C)C)CC2)cc1
  A: -1; B: 6; C: 2.6; D: nt; E: -2%
COc1ccc(Cc2nc3ccc(C(=O)NCC4CCOCC4)cc3o2)cc1OC
  A: nt; B: -16; C: -0.8; D: nt; E: nt
COc1ccccc1N(CC(=O)N/N=C(\C)c1ccccc1O)S(=O)(=O)c1ccc(C)cc1
  A: nt; B: -2; C: 10; D: nt; E: nt

(next part)
Labels used below – A = Arbovirus inh; B = Mtb betalactam; C = RecA splice inh; D = YopH PTP inh; E = Mtb growth
CCOc1ccccc1C(=O)Nc1ccc(C(=O)c2ccccc2)cc1
  A: nt; B: 1; C: -3.1; D: nt; E: nt
CC(=O)Nc1ccc(N2C(=O)CSC2c2cccc([N+](=O)[O-])c2)cc1 (stereo not given)
  A: 10; B: -1; C: 1.6; D: nt; E: -3%
CCCCN(CC)CCNC(=O)C1CCCN(S(=O)(=O)c2cccc3nsnc23)C1 (stereo not given)
  A: nt; B: 0; C: -0.2; D: nt; E: nt
N#Cc1ccc(NC(=O)CN2CCN(c3ccccn3)CC2)cc1
  A: nt; B: -1; C: -0.5; D: nt; E: nt
O=C(CNCc1cccs1)NC12CC3CC(CC(C3)C1)C2
  A: -4; B: 11; C: 1.8; D: nt; E: 5%
CCOC(=O)c1ccc2[nH]c3c(c2c1)CCCCC3=O
  A: 0; B: -5; C: -1.1; D: -21; E: 10%
CC(C(=O)Nc1ccc(C#N)cc1)N(C)Cc1cccs1 (stereo not given)
  A: nt; B: -4; C: 1.5; D: nt; E: nt
COc1ccccc1NC(=O)N1CCCC1C(=O)NCC1CCCO1 (stereo not given)
  A: 0; B: 3; C: nt; D: nt; E: 2%
Cc1nc(SCC(=O)c2ccccc2)c([N+](=O)[O-])[nH]1
  A: 11; B: 4; C: 4.0; D: -34; E: -1%
CC(SCc1ccccc1)C(=O)Nc1ccc2c(c1)OCO2 (stereo not given)
  A: -5; B: -6; C: 4.6; D: -12; E: 4%
COc1cc(/C=C(\C#N)c2nc3c(s2)CC(C)CC3)ccc1O (stereo not given)
  A: -6; B: 93; C: 25; D: -48; E: -3%
Cc1cccc(OCC(=O)NCCCNC(=O)c2cnccn2)c1
  A: nt; B: 3; C: 2.9; D: nt; E: nt
CC1(C)Cc2cccc(OCC(=O)OCC(=O)Nc3ccccc3)c2O1
  A: nt; B: -7; C: 1.1; D: nt; E: nt
Cc1ccn2c(=O)nc(SCC(=O)N3CCC(Cc4ccccc4)CC3)nc2c1
  A: nt; B: 1; C: -4.8; D: nt; E: nt
O=C1CCC(C(=O)N(Cc2cccs2)C2(C(=O)NC3CCCCC3)CCCCC2)N1 (stereo not given)
  A: 3; B: 12; C: 1.0; D: nt; E: -10%

Later entries
Labels used below – A = Arbovirus inh; B = Mtb betalactam; C = RecA splice inh; D = YopH PTP inh; E = Mtb growth
CCOC(=O)CN(C#N)c1nc(C)cc(C)n1
  A: 6; B: -3; C: 3.0; D: -14; E: -6%
CC1=NNC(=O)C1CCC(=O)N/N=C(/C)c1ccc([N+](=O)[O-])cc1 (stereo not given)
  A: 3; B: 5; C: -2.3; D: -18; E: -1%
C=CCc1cccc(/C=N/n2c(C)nnc2C)c1O
  A: 17; B: -19; C: -0.5; D: -12; E: -7%
Cc1cc(C(=O)CSc2cccc[n+]2[O-])c(C)n1-c1ccc(Br)cc1
  A: 7; B: 100; C: nt; D: nt; E: 2%
COc1ccc(CCNC(=O)CSc2nc(-c3ccc(OC)c(OC)c3)ccc2C#N)cc1
  A: -8; B: -3; C: -6.4; D: -28; E: -2%
Cc1ccccc1Nc1nc2ccccc2n1C(C)C
  A: -3; B: 2; C: -0.1; D: -24; E: -9%
ClC1(Cl)CC1Cn1c(C2CC2)nc2ccccc21 (stereo not given)
  A: 24; B: -1; C: -1.5; D: nt; E: 0%
Cc1ccc(NC(=O)CSc2nnc(CNC(=O)c3ccccc3F)o2)cc1
  A: 0; B: -4; C: -1.5; D: nt; E: 2%
O=C(O)c1ccccc1N1C(=O)C2C3CCC(C3)C2C1=O (stereo not given)
  A: 4; B: 3; C: -1.7; D: nt; E: -4%
Nc1ccccc1C(=O)NCc1ccco1
  A: nt; B: -4; C: -0.2; D: nt; E: nt
CC(C)(C)SCCNC(=O)CSCc1ccc([N+](=O)[O-])cc1
  A: 15; B: 0; C: 0.4; D: -30; E: nt
CN(CC(=O)Nc1ccc(C(N)=O)cc1)CC(=O)Nc1ccccc1Cl
  A: -2; B: -2; C: -3.9; D: -4; E: -5%
Cc1ccc2nc(SCC(=O)Nc3ccc(F)cc3F)nc(=O)n2c1
  A: nt; B: -3; C: 2.9; D: nt; E: nt
O=C1CNC(=S)N1Cc1ccc(Cl)cc1
  A: nt; B: 3; C: -3.1; D: nt; E: nt
